# TRPV1 PAM: enhances activation of the human vanilloid receptor TRPV1; Q8NER1; TRPV1-expressing cells, Fluo-8 calcium influx, capsaicin EC20 potentiation; host cell line not named in the record; control for the full effect not named in the record; potentiation, % at 8.33 µM; 320,000 compounds, 0.02% hits; active means potentiation above 80%; inconclusive means 30% to 80%; inactive means below 30%; also: 0% is about no effect
#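 Fluo-8 calcium influx in TRPV1-expressing cells, kinetic read (ex 480/em 520 nm). Compound added and read 3 min for agonist activity, followed by capsaicin at EC20 final and 2 min further read for enhancement.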
# D2 potentiator: positive allosteric modulators of human D2 dopamine receptor | 360,000 compounds, 0.23% hits | potentiation, % (no concentration beside the values) | P14416 | DiscoveRx D2 beta-arrestin cells, luminescence, 90 min; 100% = 57 uM dopamine signal; active = potentiation of 50% or more; inconclusive = 30% to 50%; inactive = 30% or less;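 also: compound concentration not given in the record; tested on top of an EC20 dose of dopamine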
# Target sequence (P14416 whole entry, looked up): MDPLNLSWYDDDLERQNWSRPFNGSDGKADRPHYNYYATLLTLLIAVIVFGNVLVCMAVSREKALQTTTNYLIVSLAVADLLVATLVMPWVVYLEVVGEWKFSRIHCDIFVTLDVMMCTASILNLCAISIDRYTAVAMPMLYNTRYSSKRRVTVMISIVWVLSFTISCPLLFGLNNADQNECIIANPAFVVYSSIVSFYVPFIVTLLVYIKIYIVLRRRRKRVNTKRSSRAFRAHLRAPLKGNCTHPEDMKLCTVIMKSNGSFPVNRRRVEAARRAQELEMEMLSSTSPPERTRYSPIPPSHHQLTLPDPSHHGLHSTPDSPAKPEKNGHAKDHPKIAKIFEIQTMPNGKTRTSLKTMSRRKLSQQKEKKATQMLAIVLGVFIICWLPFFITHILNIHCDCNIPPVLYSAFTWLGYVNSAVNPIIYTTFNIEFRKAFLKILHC
#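 D2 cells co-treated with compound plus 50 nM dopamine (EC20) for 90 min at 37 deg C to detect potentiation. Beta-arrestin recruitment was read as enzyme-fragment luminescence after 1 h at ambient temperature. Full response was set by 57 uM dopamine.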
# CtBP-E1A blk: CtBP/E1A binding inhibition; activity change, % (concentration not given with the values); 340,000 compounds, 0.49% hits; AlphaScreen GST-E1A/His-CtBP binding, 1536-well; active compounds read low; control for the full effect not named in the record; AID 651724; in the data active means activity change below about -65%; inconclusive means about -30% to -65%; inactive means above about -30%; also: % is scaled to controls: 0 for no effect and ±100 for the full control effect
#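 In 5 uL wells, 23 nL compound meets equimolar GST-E1A and His-CtBP (5X stock 125 nM each) for 2 h, 37 °C. Beads (5X, 50 ug/mL) then 1 h, 37 °C, dark.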
# TRPML1 blocker: blocks the human TRPML1 channel; 390,000 compounds, 0.02% hits; activity change, negative = inhibition, % (no concentration beside the values); TRPML1-inducible cells, Ca2+ dye fluorescence, FDSS; active compounds read low; inhibition of EC80 agonist-evoked calcium signal; Q9GZU1; in the data active means activity change below about -50%; inconclusive means about -30% to -50%; inactive means above about -30%;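 also: stimulus is agonist 54-4 at its EC80 concentration; % is scaled to controls: 0 for no effect and ±100 for the full control effect; compound concentration not given in the record; the text of the record puts the active cut at -80%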
# Target sequence (Q9GZU1 whole entry, looked up): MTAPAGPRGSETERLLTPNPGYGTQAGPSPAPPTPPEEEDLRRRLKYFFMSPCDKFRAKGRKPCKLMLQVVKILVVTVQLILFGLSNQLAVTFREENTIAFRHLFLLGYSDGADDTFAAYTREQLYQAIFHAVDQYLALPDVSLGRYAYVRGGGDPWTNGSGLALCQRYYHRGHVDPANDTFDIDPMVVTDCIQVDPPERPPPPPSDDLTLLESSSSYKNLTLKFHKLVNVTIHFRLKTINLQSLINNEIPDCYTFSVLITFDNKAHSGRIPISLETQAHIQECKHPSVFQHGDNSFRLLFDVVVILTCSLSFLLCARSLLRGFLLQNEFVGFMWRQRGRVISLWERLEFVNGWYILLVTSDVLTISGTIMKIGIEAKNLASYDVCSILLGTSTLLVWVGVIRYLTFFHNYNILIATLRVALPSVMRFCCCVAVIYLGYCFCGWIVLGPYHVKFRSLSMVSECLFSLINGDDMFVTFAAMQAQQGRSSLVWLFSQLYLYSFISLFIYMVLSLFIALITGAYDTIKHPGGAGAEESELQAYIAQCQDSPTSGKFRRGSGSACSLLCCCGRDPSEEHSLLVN
#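 Tet-induced TRPML1-DL cells loaded with Ca8 no-wash calcium dye were read kinetically on FDSS. Compound addition was followed by EC80 agonist 54-4 (4 uM final); inhibition was read over 110 s.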
# TRPML1 agonist: activates the human TRPML1 channel; Q9GZU1; TRPML1-expressing cells, Ca2+ dye fluorescence, FDSS; host cell line not named in the record; reference of the full effect not given here; activation, % (concentration not given with the values); 410,000 compounds, 0.12% hits; in the data active = activation above about 50%; inconclusive = about 30% to 50%; inactive = below about 30%; also: 0% is about no effect; the text of the record puts the active cut at 80%
#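 Cells: TRPML1-DL, 1X Tet inducer, ~16 h at 37 degrees C/5% CO2. Dye: ABD Ca8 no-wash + quencher, 45-90 min RT. Read: 10 s baseline, compound add, 110 s agonist phase; 54-4 EC80 (4uM final), 110 s antagonist phase.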
# Six1-Eya2 inh: Six1/Eya2 interaction inhibition; Q15475+O00167; 360,000 compounds, 0.56% hits; AlphaScreen GST-Six1/His-Eya2 binding, biochemical; active compounds read low; control for the full effect not named in the record; activity change, % (test concentration not listed); in the data active = activity change below about -65%; inconclusive = about -30% to -65%; inactive = above about -30%; also: % is scaled to controls: 0 for no effect and ±100 for the full control effect
#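 Compounds are tested against tagged Six1 and Eya2 proteins bridged by glutathione donor and nickel acceptor beads; after a one-hour incubation at 37 °C without light, AlphaScreen emission is recorded.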
# Starred values were filed as active, the others as inactive; u = inconclusive; x = not tested or not shown; & = joins results of further samples.
# Every second line gives: TRPV1 PAM	D2 potentiator	CtBP-E1A blk	TRPML1 blocker	TRPML1 agonist	Six1-Eya2 inh
- CCCCN(C)C(=O)C1CCCN(S(=O)(=O)c2ccc3c(c2)CC(C)N3C(=O)C2CC2)C1 (centres undefined)
→ -6.1	-2.7	0.0	-4.7	0.0	18.8
- Cc1nn(C(C)C(=O)c2cccc(Cl)c2)c(C)c1[N+](=O)[O-] (centres undefined)
→ -23.1	-10.7	5.6	5.8	4.3	-0.8
- O=c1c2c([N+](=O)[O-])cc([N+](=O)[O-])cc2nc2ccccn12
→ -15.3	4.3	x	45.1	-1.0	-6.7
- CCN(CC)c1ccc(-c2nn3c(-c4n[nH]c5c4CCC5)nnc3s2)cc1
→ -3.1	-2.1	u	-6.9	2.1	-27.8
- CC1(C(=O)NS(=O)(=O)C2CC2)CCCN(C(=O)c2ccc3c(c2)OCO3)C1 (centres undefined)
→ x	0.3	4.8	x	0.3	4.1
- NC(=O)COC(=O)c1c2c(nc3ccccc13)CCC2
→ u	-1.8	-3.4	-12.4	-0.7	-11.3
- COc1ccccc1-c1nc(SC)n[nH]1
→ -1.0	4.3	6.5	-4.2	0.6	-3.5
- Cc1ccc(CNC(=O)CN(c2ccc(Cl)cc2)S(C)(=O)=O)cc1
→ 4.8	-0.1	6.3	3.1	-0.2	-2.3
- NC(=O)c1cccc2ccccc12
→ -4.4	-2.2	-1.9	27.9	-0.1	4.4
- Cc1c(C2(O)CCCCC2)[nH]c2ncccc12
→ 6.3	-9.9	-5.9	-7.8	-0.7	-5.9
- CC1CCN(C(=O)c2cc(S(=O)(=O)N3CCOCC3)ccc2N2CCCC2)CC1
→ -5.2	-7.0	x	-14.4	-0.7	17.6
- CC(=O)N1[C@H](C)C=C[C@]1(Cc1ccccc1)C(=O)NCCc1c[nH]c2ccccc12
→ -22.8	2.1	3.5	-6.0	0.9	-2.8
- COCCC1CCCCN1C(=O)c1cc(COc2cccc(C(C)=O)c2)on1 (centres undefined)
→ 11.7	8.3	-2.1	-0.1	-0.6	2.4
- CCOc1ccc(NC(=O)[C@@H](NC(=O)c2ccco2)C(C)C)cc1
→ 22.5	-10.2	x	-8.8	1.3	2.2
- CCOC(=O)c1ccc(NC(=O)C(C)Sc2nc(O)c(-c3ccccc3)c(=O)[nH]2)cc1 (centres undefined)
→ -8.2	-6.4	-5.3	29.1	0.6	2.9
- O=C(Nc1sc2c(c1-c1nc3ccccc3[nH]1)CCCC2)C1CC1
→ -17.6	5.2	-0.6	1.4	-0.2	-0.4
- CCN(C(=O)CSc1nc2cc(C(=O)O)ccc2c(=O)n1-c1ccccc1F)C1CCS(=O)(=O)C1 (centres undefined)
→ x	-11.0	-0.1	9.0	0.3	-4.9
- COc1ccc(C(=O)O/N=C(\N)c2ccccc2)cc1
→ 14.0	26.9	15.0	-12.5	0.1	13.0
- COc1ccc(OC)c(N2C(=O)CC(Cc3cc(C)cc(C)c3)C2=O)c1 (centres undefined)
→ u	10.0	-21.6	-18.4	0.2	0.6
- COc1ccc(OCCN2CCC(C(=O)NC(c3ccc(Cl)cc3)c3cccnc3)CC2)cc1 (centres undefined)
→ x	-22.7	-5.6	36.2	0.5	-6.3
- CC(C)CN(CCCNC(=O)CN1C(=O)CSc2ccc(S(=O)(=O)N3CCOCC3)cc21)CC(C)C
→ 19.3	-2.3	-2.2	-22.1&-0.9	0.3&-0.9	12.5
- CCCc1c(CC)c(=N)c2ccccc2n1C
→ 1.6	-7.5	17.0	-4.0	-0.3	5.0
- CC(C)C[C@H](NC(=O)N1c2ccccc2NC(=O)[C@@H]1C(C)C)C(=O)N[C@@H](Cc1ccccc1)C(=O)O
→ -1.7	17.6	10.0	x	x	1.0
- CCc1cc2c(=O)[nH]c(CC(N)=O)nc2s1
→ 7.7	1.4	-2.9	47.4	1.3	-0.4
- Cc1cc(C)c[n+](-c2[nH]c(=O)sc2/C=N/N=C(\[O-])c2cccnc2)c1
→ 8.3	-22.0	u	-2.3	0.9	-19.6
- Cc1cccc(C)c1NC(=O)Cc1cccs1
→ 4.3	1.7	9.3	-2.5	-0.3	-5.4
- CCOc1cccc(CN2CCC(n3nccc3NC(=O)CCCc3ccccc3)CC2)c1
→ -5.4	-16.2	-4.4	-8.4	0.1	-7.3
- CCN1CCN(c2ccc(S(=O)(=O)N3CCCCC3)cc2NC(=O)c2ccc(C)o2)CC1
→ 16.0	-14.8	-6.4	13.6	0.6	-18.6
- N#CCC(=O)Nc1ccc(C(=O)OC(C(=O)Nc2ccc([N+](=O)[O-])cc2Br)c2ccccc2)cc1 (centres undefined)
→ x	3.5	-29.4	-12.1	0.8	-11.1
- CC(=O)Nc1cccc(NC(=O)C(=O)c2cn(CC(=O)N3CCCCC3)c3ccccc23)c1
→ 18.4	-5.2	3.2	0.8	0.3	12.1
- Cc1ccc2c(c1C)OC(=O)CC2(C)C
→ -5.0	-14.7	37.9	73.3	0.3	3.2
- Fc1cccc(/C=N/Nc2nccnc2Cl)c1
→ 9.0	-4.2	-0.9	28.1	2.0	-6.1
- COc1ccc(C(=O)Nc2ccc(S(=O)(=O)N3CCCC3)cc2)c(OC)c1
→ -8.2	-3.7	4.2	14.5	-0.3	-4.0
- Cc1cc2c(cc(C(=O)OC(C(=O)NCc3ccco3)C(C)C)n2C)o1 (centres undefined)
→ 0.4	-15.6	-6.7	-0.7	1.9	-10.2
- O=C1C(=O)N(C/C=C/c2ccccc2)c2ccccc21
→ -4.2	-59.1	x	-10.7	-0.4	-3.2
- O=C(CNC(=O)c1ccc(Cl)cc1)N/N=C/c1cccnc1
→ 6.4	-1.7	0.7	-0.5	1.9	7.6
- COc1ccccc1-c1cc(C(=O)NCCCN2CCOCC2)no1
→ 0.4	-13.9	0.5	-9.7	0.2	2.6
- Cc1[nH]c(=O)[nH]c(=O)c1CSc1nnc(CCCCCNC(=O)OC(C)(C)C)o1
→ 1.2	-7.0	1.3	4.4	-0.1	3.1
- Cc1nc(SCCC(=O)O)c2ccccc2n1
→ 11.7	-14.9	-2.7	-8.5	0.7	-3.5
- CC(=O)Nc1ccc(S(=O)(=O)c2c(N)n(CCN3CCOCC3)c3nc4ccccc4nc23)cc1
→ 11.0	4.4	-1.2	-6.3	-0.7	11.4
- N/C(Cc1cccc2ccccc12)=N\OC(=O)COc1ccccc1
→ 5.7	15.0	0.7	4.7	2.9	53.4
- CC(C)Cc1nc2sc3c(NCc4ccco4)ncnc3c2c2c1COC(C)(C)C2
→ -14.2	3.4	-3.6	3.7	0.5	3.8
- COC(=O)c1ccc(Cl)c(NC(=O)CN2CCOCC2)c1
→ 7.4	10.2	-4.3	2.9	-1.2	-6.6
- O=C(CSc1ccc(-c2ccc(F)cc2)nn1)N1CCCCC1
→ -9.9	-9.1	-10.5	-0.7	1.1	-23.3
- CCCc1nnc(SCC(=O)O)n1CC
→ -5.0	-8.2	10.7	x	x	2.8
- COc1ccccc1C=NN=C(NN=Cc1ccccc1OC)NN=Cc1ccccc1OC
→ x	-26.8	-10.1	-6.7	-0.1	-11.9
- COC(=O)CCC(=O)OC1(C)C(=O)C=C2C=C(C3CC3)N(Cc3ccc(OC)cc3)C=C2C1=O (centres undefined)
→ -2.2	9.0	-2.1	0.3	-0.5	-9.6
- CSCC(=O)N1CCCC(CNC(=O)c2ccccc2Cl)C1 (centres undefined)
→ -3.9	1.8	-0.7	-11.4	-0.5	1.3
- O=C(CCC(=O)OCc1ccc([N+](=O)[O-])cc1)Nc1ccccc1Cl
→ 2.6	-7.2	4.7	-8.6	0.1	-0.1
- O=C(Cc1cccs1)Nc1ccc(Cl)cc1
→ -14.7	0.1	8.1	18.0	-1.0	3.8

# Look-ups from the entries so far.
# D2 potentiator result of O=C(CCC(=O)OCc1ccc([N+](=O)[O-])cc1)Nc1ccccc1Cl reads -7.2
# Six1-Eya2 inh result of O=C(Cc1cccs1)Nc1ccc(Cl)cc1 reads 3.8

# Following part:
# Every second line gives: TRPV1 PAM	D2 potentiator	CtBP-E1A blk	TRPML1 blocker	TRPML1 agonist	Six1-Eya2 inh
- CCOC(=O)c1cn(CC(=O)Nc2ccc(C)cc2)nn1
→ -6.7	-1.6	-9.9	-2.6	-0.1	-1.7
- COC(=O)C1=CN(Cc2ccc(OC)c(OC)c2)C=C(C(=O)OC)C1c1ccccc1F
→ -13.1	u	x	x	x	13.0
- COC(=O)C1=C(CS(=O)(=O)c2ccc(OC)cc2)NC(=O)NC1c1ccccc1 (centres undefined)
→ -1.8	-20.0	5.7	-5.4	0.2	1.4
- CC[C@@H](C)[C@H](NC(=O)OCc1ccccc1)c1nnc([C@@H](NC(=O)OCc2ccccc2)[C@@H](C)CC)o1
→ -10.5	-41.9	32.2	-2.1	1.9	21.0
- CCOC(=O)C1=CN(Cc2cccc(F)c2)S(=O)(=O)N(C)C1c1cccc(OC)c1 (centres undefined)
→ x	2.9	7.8	6.5	-1.3	2.9
- CC(C)(C)C(=O)NC1CCN(S(C)(=O)=O)CC1
→ 3.6	-9.6	4.4	4.5	0.0	1.5
- CCN1CCCC1CNC(=O)C1CCN(Cc2nc(-c3cccc(Br)c3)oc2C)CC1 (centres undefined)
→ 5.0	-35.1	-20.1	8.1	0.1	-10.0
- CCOC(=O)C1=C(C)NC(=NC)SC1c1ccccc1 (centres undefined)
→ 6.5	3.9	-13.8	-9.0	1.5	-4.4
- Cc1cccc(CN2CCN(C(=O)c3ccccc3F)CC2)c1
→ -21.8	-20.9	-0.7	1.2	-0.8	-0.3
- C(=N\N1CCN(C2c3ccccc3-c3ccccc32)CC1)/c1ccncc1
→ 0.8	16.9	-1.4	10.1	1.7	-12.8
- CCN1CCN(Cc2c(O)ccc3c(=O)c(-c4ccc(OC)c(OC)c4)c(C)oc23)CC1
→ 6.1	-14.2	0.0	3.7	-0.6	-2.1
- N#Cc1ccccc1S(=O)(=O)N1CCN(S(=O)(=O)c2ccc(Br)c(C(=O)O)c2)CC1
→ 7.0	-3.9	5.3	-1.8	0.3	4.3
- O=C(CSc1ccc(Cl)cc1)Nc1cccc(NC(=O)c2ccco2)c1
→ 28.4	-1.8	56.0	4.9	3.0	13.4
- CCC(=O)Nc1ccc(S(=O)(=O)NC[C@H]2O[C@@H](n3cc(C)c(=O)[nH]c3=O)C[C@@H]2O)cc1
→ x	-0.8	2.8	14.2	-0.5	5.2
- O=C(NCc1ccco1)c1cccc2c(-c3ccc(F)c(F)c3)coc12
→ x	-12.5	-11.3	x	1.6	-12.8
- Cc1ccc(S(=O)(=O)N2CCC(C(=O)Nc3ncccc3O)CC2)cc1
→ -20.3	-0.5	-26.6	7.8	1.6	-17.3
- CSc1ccc(/C=N/S(=O)(=O)c2ccccc2)cc1
→ 11.1	-6.3	-1.0	-0.9	-0.3	0.4
- CC(C)c1cc(C(=O)N2CCCC(CCC(=O)NCc3ccccc3F)C2)n(C)n1 (centres undefined)
→ 0.1	6.2	9.0	-4.4	-0.8	3.6
- CC12CCC(=O)N1C(C(=O)Nc1ccccc1N1CCCC1)CS2 (centres undefined)
→ x	2.2	-1.6	16.0	0.7	-4.0

# Screens from PubChem BioAssay.

# An unsorted share of the library. Share with any hit: about 0.95%.
